gsp ag = activates gsp, the McCune-Albright syndrome mutation; gsp mutant cells, cAMP HTRF, 30 min; control for the full effect not named in the record; hit rate 0.13% among 340,000; Potency, µM (titrated, usually from 76.9 µM), inactives show top-dose activation (cAMP increase), most hits filed as activators; AID 624287; active = well fitted activation curve with a large enough effect; inconclusive = small, poorly fitted or top-dose-only effect, or another doubt; inactive = no such curve, though single readings can be large or run the other way; cell line not stated here;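 also: phosphodiesterase inhibitor Ro 20-1724 added with compounds to block cAMP breakdown; potency is read from the fitted curve at half-maximal effect; nearly all actives have a fitted effect of over 60% in size; about a fifth of the inactives were tested at one dose only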
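Cells in DMEM/10% FBS with G418 were pretreated with compounds in DMSO plus […] (300 uM stock) for 30 min at 37C. cAMP was measured by HTRF (cAMP-d2 plus anti-cAMP antibody-K) after 30 min at room temperature.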
Menin-MLL FL inh = menin-MLL binding inhibition, fluorescein peptide | Fluorescence polarization, fluorescein-MLL peptide displacement from menin | FP activity change, % at 61.4 µM | 290,000 tested, under 10 active; inconclusive = falling polarisation curve, or a change in total fluorescence; inactive = total fluorescence flat and polarisation flat or rising; no compound was filed as active; the % refers to the polarisation; negative = inhibition;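 also: % of control where 0% means no effect; inhibitors lower the polarisation; unlabelled MLL peptide was the positive control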
ClpP mod = qHTS Assay for Activators of ClpP; purified B. subtilis ClpP, FRET peptide cleavage, 20 min; Potency, µM (top dose mostly 57.5 µM), without a hit: at the highest dose activity change, negative = active; hit rate 1.9% among 340,000; AID 651965, 2013; active = well fitted falling curve with a large enough effect; inconclusive = small, poorly fitted or top-dose-only effect; inactive = no such curve, though single readings can be large or run the other way; also: potency is read from the fitted curve at half-maximal effect; the source files actives as falling curves though it sought activators and does not explain the sign; nearly all actives have a fitted effect of over 65% in size; many hits overshoot -100%
Target sequence (P80244 whole entry, looked up): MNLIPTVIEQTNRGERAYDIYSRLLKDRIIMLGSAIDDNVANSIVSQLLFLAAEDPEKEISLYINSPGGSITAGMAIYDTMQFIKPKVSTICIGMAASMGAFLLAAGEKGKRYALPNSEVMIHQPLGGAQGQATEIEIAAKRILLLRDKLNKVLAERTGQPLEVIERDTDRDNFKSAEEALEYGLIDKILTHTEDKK
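FRET quenching reversal measured ClpP activation: 10 microg/mL B. subtilis ClpP at pH 8 with the FRET-FV decapeptide, read at 430 nm after 320 nm excitation. The 20-min minus 0-min signal was scaled between DMSO/no-enzyme wells and ADEP (5.8 microM final).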
TRPML1 inh = blocks the human TRPML1 channel. TRPML1-inducible cells, Ca2+ dye fluorescence, FDSS; active compounds read low; inhibition of EC80 agonist-evoked calcium signal. activity change, negative = inhibition, % (test concentration not listed). hit rate 0.02% among 390,000. AID 624415; in the data active means activity change below about -50%; inconclusive means about -30% to -50%; inactive means above about -30%;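 also: stimulus is agonist 54-4 at its EC80 concentration; % is scaled to controls: 0 for no effect and ±100 for the full control effect; compound concentration not given in the record; the text of the record puts the active cut at -80%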
Target sequence (Q9GZU1 whole entry, looked up): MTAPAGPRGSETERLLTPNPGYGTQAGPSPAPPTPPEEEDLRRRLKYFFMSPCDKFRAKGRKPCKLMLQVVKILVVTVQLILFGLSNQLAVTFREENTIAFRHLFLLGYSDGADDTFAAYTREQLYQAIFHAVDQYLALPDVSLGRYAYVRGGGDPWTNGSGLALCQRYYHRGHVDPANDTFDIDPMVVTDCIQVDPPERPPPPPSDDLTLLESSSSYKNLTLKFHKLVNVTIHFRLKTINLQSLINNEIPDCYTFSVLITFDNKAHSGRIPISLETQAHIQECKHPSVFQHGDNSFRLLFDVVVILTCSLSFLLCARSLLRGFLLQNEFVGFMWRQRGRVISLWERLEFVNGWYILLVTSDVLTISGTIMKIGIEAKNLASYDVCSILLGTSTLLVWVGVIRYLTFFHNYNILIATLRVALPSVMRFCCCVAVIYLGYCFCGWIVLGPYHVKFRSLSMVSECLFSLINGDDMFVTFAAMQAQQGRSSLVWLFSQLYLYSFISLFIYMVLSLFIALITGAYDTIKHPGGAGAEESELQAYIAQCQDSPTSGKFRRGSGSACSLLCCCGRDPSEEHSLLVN
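TRPML1-DL cells, Tet-induced overnight (~16 h, 37 °C) at 1,500 cells/well, were loaded with Ca8 no-wash dye plus quencher for 45-90 min at room temperature. Compounds were pinned during FDSS kinetic reading; agonist 54-4 at EC80 (4 uM final) then added.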
gsp antag = gsp mutant antagonism; gsp-mutant cells, cAMP HTRF, 30 min; control for the full effect not named in the record; Potency, µM (doses to about 76.9 µM), inactives show at the highest dose activity change, negative = inhibition, usual class: inhibitors; hit rate 0.4% among 340,000; AID 624288; active = falling curve of any shape with a large fitted effect; inconclusive = falling curve, mostly with a smaller effect; inactive = flat or rising curve; cell line not stated here;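 also: intracellular cAMP measured with PDE inhibitor Ro 20-1724 present during compound exposure; potency is read from the fitted curve at half-maximal effect; % is scaled to controls: 0 for no effect and ±100 for the full control effect; nearly all actives have a fitted effect of over 65% in size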
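Cells in G418 medium, seeded 16-24 h, 37C; buffer exchange to DPBS + 1 mM CaCl2, 0.5 mM MgCl2, 0.05% BSA; cpds in DMSO + […] (300 uM stock), 30 min 37C; HTRF cAMP detection.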
TRPML1 ag = human mucolipin-1 channel agonism | TRPML1-expressing cells, Ca2+ dye fluorescence, FDSS; host cell line not named in the record; reference of the full effect not given here | activation, % (test concentration not listed) | hit rate 0.12% among 410,000; in the data active = activation above about 50%; inconclusive = about 30% to 50%; inactive = below about 30%; also: 0% is about no effect; the text of the record puts the active cut at 80%
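In this qHTS format, compounds were pin-transferred onto Ca8-dye-loaded TRPML1-DL cells induced with Tet overnight, and intracellular Ca2+ fluorescence was recorded kinetically for 110 s after a 10 s baseline. A subsequent 4uM final 54-4 (EC80) addition followed by a second 110 s read served as the antagonist phase.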
Active calls of the source: *; ? = inconclusive; / = not tested or not shown; [ ] = another dose, or the depositor's remark.

SMILES	gsp ag	TRPML1 ag	Menin-MLL FL inh	TRPML1 inh	gsp antag	ClpP mod
Cc1cc(NC(=O)CCC(=O)N(Cc2cccs2)C(C)(C)C(=O)NC2CCCCC2)no1	4.1%[15.4 µM]	1.2	-1.7	-27.2	/	/
O=C(O)c1ccccc1C(=O)c1ccc(-c2ccccc2)cc1	5.8%	0.3	-16.9	-10.8	?	-0.4%
O=C(CN1CCN(S(=O)(=O)c2ccc(F)c(Cl)c2)CC1)N1CCNC1=O	9.5%	0.3	/	-4.2	5.4%	-0.8%
C[C@@H]1CN([C@H](C)CO)C(=O)CCCn2nncc2CO[C@H]1CN(C)S(=O)(=O)c1ccc(-n2cccn2)cc1	?	-0.2	/	-4.2	/	0.6%
COc1ccc(-c2ccnc3c(-c4ccc(F)cc4)c(C)nn23)cc1OC	/	0.2	/	12.1	/	-1.0%
O=C1c2ccncc2C(=O)N1Cc1cccc(Cl)c1	-4.9%	-1.0	0.4	6.2	3.6%	-2.4%
CC(Oc1ccccc1F)c1nnc(SCC(=O)N(c2ccccc2)C2CCS(=O)(=O)C2)o1 (centres undefined)	-1.3%	-1.8	/	1.2	-15.6%	1.9%
O=C(CSc1ccsc1[N+](=O)[O-])Nc1cc(F)ccc1F	6.9%	2.2	11.8	-5.9	-8.8%	-0.1%
COc1ccc(Br)cc1/C=C/C(=O)Nc1c(C)cccc1C	-31.8%[inhibitor]	1.4	4.5	-15.7	-19.8%	-5.4%
CCN(CC)c1ccc(/C=C2\C(=O)N(c3nnc(C)c(=O)[nH]3)N=C2C)cc1	-5.5%	-0.3	?	10.4	-8.9%	-0.7%
Cc1ccc(NC(=O)/C(=C/c2cccc([N+](=O)[O-])c2)NC(=O)C2CCCCC2)c(C)c1	-26.0%	-0.2	-4.3	-1.5	-0.8%	0.2%
CCN(C(=O)COC(=O)c1cc([N+](=O)[O-])ccc1N1CCOCC1)C1CCCCC1	?	1.7	/	-0.9	-21.0%	?

Following part
SMILES	gsp ag	TRPML1 ag	Menin-MLL FL inh	TRPML1 inh	gsp antag	ClpP mod
O=C(NCc1ccccc1)c1ccc(-c2ccccc2C(F)(F)F)o1	-77.9%[inhibitor]	1.1	7.2[94.6 µM]	24.1	-14.6%	-20.6%
CN(C)c1ccc(NC(=O)c2cc3c(=O)n4ccccc4nc3n2C)cc1	18.2%	-0.4	/	0.6	-4.4%	-1.7%
CCOc1ccc(OCC)c(NC(=O)CNS(=O)(=O)c2cccs2)c1	11.8%	4.3	5.7	3.6	-9.4%	0.0%
N#CC1=C(N)N(c2ccc(F)cc2)C2=C(C1c1ccc(O)cc1)S(=O)(=O)CC2 (centres undefined)	-19.7%[15.4 µM]	1.5	?	22.0	-4.8%	/
COc1ccc(NC(=O)c2oc3ccc(S(=O)(=O)N(C)C4CCCCC4)cc3c2C)cc1	/	-0.1	/	-4.6	/	-19.7%
COC(=O)c1cc(NC(=O)CN(C)C2CCS(=O)(=O)C2)cc(C(=O)OC)c1 (centres undefined)	-40.0%[inhibitor]	0.5	/	1.8	3.8%	-3.9%
Cc1ccc(C)c(NC(=O)CSc2c(C)cnc3c2c(=O)n(C)c(=O)n3C)c1	/	-0.6	/	14.4	/	1.1%
COCCNC(=S)N(c1ccccc1)C(C)C	-16.2%[15.4 µM]	-0.1	2.2	1.4	1.3%	/
N#CCCn1cc(CNC2CCC(O)CC2)c2ccccc21 (centres undefined)	-9.7%[15.4 µM]	0.3	0.0	1.6	2.1%	/
NC(=O)c1ccc(NS(=O)(=O)c2ccc(S(=O)(=O)N3CCCC3)cc2)cc1	-31.8%[inhibitor]	-1.1	/	-10.0	/	-1.4%
CC1CN(C(=O)c2ccccc2C(=O)c2ncc[nH]2)CC(C)O1 (centres undefined)	-1.1%	-0.2	-0.1	2.0	5.0%	-16.8%
CC(C)c1ccc(NC(=O)CSc2nc(=O)[nH]c3c2CCCC3)cc1	?	0.4	/	9.8	-0.8%	-4.4%

Arranged by value in Menin-MLL FL inh (high to low): four from the list above
| compound | gsp ag | Menin-MLL FL inh | TRPML1 inh |
| --- | --- | --- | --- |
| CCOc1ccc(OCC)c(NC(=O)CNS(=O)(=O)c2cccs2)c1 | 11.8% | 5.7 | 3.6 |
| COCCNC(=S)N(c1ccccc1)C(C)C | -16.2%[15.4 µM] | 2.2 | 1.4 |
| N#CCCn1cc(CNC2CCC(O)CC2)c2ccccc21 (centres undefined) | -9.7%[15.4 µM] | 0.0 | 1.6 |
| CC1CN(C(=O)c2ccccc2C(=O)c2ncc[nH]2)CC(C)O1 (centres undefined) | -1.1% | -0.1 | 2.0 |

Next part.
SMILES	gsp ag	TRPML1 ag	Menin-MLL FL inh	TRPML1 inh	gsp antag	ClpP mod
CCN(CC)S(=O)(=O)c1ccc2c(c1)nc(SCC(=O)NC1CC1)n2-c1ccccc1OC	-12.0%	0.0	-1.0	-7.1	-11.4%	0.6%
COC(=O)c1cc(C(=O)N2CCN(c3cccc(Cl)c3)CC2)cc([N+](=O)[O-])c1	-11.2%	0.5	-0.7	58.3	22.4%	/
COc1ccc(NC(=O)C(=O)NCCO)cc1Cl	-36.2%[inhibitor]	-0.6	3.0	9.4	9.7%	-2.1%
O=C(Cn1cnc2ccccc2c1=O)c1c[nH]c2ccccc12	-16.2%	0.1	3.3	-13.5	15.5%	0.0%
CC(C)(C)OC(=O)[C@H](Cc1ccccc1)NC(=O)c1nc[nH]c1C(=O)N1CCN(c2ccccc2)CC1	-24.5%	-0.1	5.0	-13.4	-0.2%	0.6%
CCCCCC(=O)Nc1nc(C)c(-c2csc(Nc3cc(Cl)ccc3OC)n2)s1	/	-0.4	4.6	10.2	0.0%	-7.7%
COc1cc(OC)cc(-c2nnc(SCC(=O)N3CCCc4ccccc43)o2)c1	-16.8%	0.9	3.4	-10.4	-1.2%[15.4 µM]	1.4%
Cc1cccc(N2CCN(c3nc4ccccc4c4nc(-c5ccccc5)nn34)CC2)c1C	/	-0.3	/	5.5	/	-1.4%
COc1ccc2nc(SCCC(=O)O)cc(C)c2c1	11.3%[15.4 µM]	-0.2	5.5	10.9	-1.0%	/
O=C(NCc1ccco1)c1ccccc1F	3.0%	0.3	5.9	-0.7	-1.5%	-2.9%
CC(C)CCN(Cc1ccco1)S(=O)(=O)c1ccc(-c2ccc(=O)[nH]n2)s1	-6.9%	2.9	-1.7	1.3	3.3%	-5.2%
COc1ccc(N=C(C)C2=C(O)CSC2=O)cc1	-15.4%	-0.3	9.8	9.9	-5.3%	-2.4%

Further compounds follow:
SMILES	gsp ag	TRPML1 ag	Menin-MLL FL inh	TRPML1 inh	gsp antag	ClpP mod
O=C(Cn1cncn1)N/N=C/c1cccc(Cl)c1	-7.0%[15.4 µM]	-0.4	-2.6	0.1	-3.5%	0.4%
C[C@H]1CN([C@@H](C)CO)C(=O)c2cc(NC(=O)NC3CCCCC3)ccc2O[C@H]1CN(C)C(=O)Nc1ccc(C(F)(F)F)cc1	-34.1%[inhibitor]	-0.2	/	-2.3	10.0%	-10.7%
CCCn1c(=O)c2sccc2n2c(CCCC(=O)NC3CCCCC3)nnc12	/	-0.6	/	16.3	/	-4.0%
O=C(NCc1ccc(F)cc1)c1cc(-c2ccco2)on1	-0.1%	0.0	6.2	-15.8	13.7%	-1.5%
N#C/C(=C\c1ccccc1)C(=O)OCC(=O)N1CCCC1	-5.8%	-0.6	-0.4	-23.5	-5.8%	0.1%
O=C(N=C1SC2CS(=O)(=O)CC2N1c1ccc(F)cc1F)C1CC1 (centres undefined)	2.2%	0.0	/	13.0	10.3%	0.5%
O=C(O)c1cccc(N/N=C/c2cccc3ccccc23)c1	-8.6%[15.4 µM]	-0.2	-1.4	1.4	-12.6%	/
O=C(CSc1cn(CC(=O)N2CCCC2)c2ccccc12)Nc1cc(C(F)(F)F)ccc1Cl	/	2.2	/	13.9	/	-0.4%
CC(=O)c1ccc(NC(=S)NC(=O)c2c(Cl)c(C)nn2C)cc1	-7.4%[15.4 µM]	-0.7	0.4	10.5	7.1%	1.2%
COC(=O)C(C)(C)ONC(=O)Nc1ccccc1Br	-18.1%	1.5	/	-16.2	8.7%	1.1%
O=C1CSC(=Nc2ccc(Cl)cc2)N1Cc1ccco1	-4.3%	4.9	1.4	-1.1	-1.4%	/
N/C(Cc1ccc([N+](=O)[O-])cc1)=N\OC(=O)Cc1ccccc1	-27.1%	0.1	2.0	20.7	7.5%	0.7%

Continuation:
SMILES	gsp ag	TRPML1 ag	Menin-MLL FL inh	TRPML1 inh	gsp antag	ClpP mod
O=C(NCCCSc1ccccc1)c1cc(Br)ccc1O	-71.5%[inhibitor]	-0.6	/	6.0	?	3.7%
CCCC(CCC)C(=O)Nc1cccc(-c2cn3cccnc3n2)c1	/	-0.7	/	18.8	/	4.4%
COc1cccc(C2C(C#N)=C(N)SC(c3ccccc3)C2[N+](=O)[O-])c1 (centres undefined)	-0.5%	3.1	9.0	3.4	-14.4%	-1.4%
Cc1noc(C)c1COC(=O)CCc1nc2ccccc2s1	-22.3%	-0.5	1.7	-0.8	-0.8%	-0.4%
Cc1nc(NC(=O)c2ccco2)sc1C(=O)O	22.0%[15.4 µM]	0.8	-0.3	-11.1	3.1%	/
CC1CCN(S(=O)(=O)c2ccc(S(=O)(=O)NCc3ccccc3)cc2)CC1	?	-0.1	-2.1	-7.9	-0.5%	-3.3%
CN(CCc1ccccn1)C(=O)c1cc(COc2ccc(F)cc2F)on1	-33.9%[inhibitor]	0.4	/	-10.9	-0.7%	1.8%
Cn1c(=O)c2c(n(C)c1=O)=NC1(CCCCC1)ON=2	7.6%	-0.9	6.6	11.7	-1.7%	0.8%
Cc1ccc(-n2cc(CN(C)Cc3nccn3C)c(-c3ccc(F)cc3)n2)cc1	-8.5%[15.4 µM]	0.8	1.8	13.6	-6.6%	/
O=C(NC12CC3CC(CC(C3)C1)C2)c1cc(F)c(F)cc1Cl	-9.6%[15.4 µM]	1.5	2.1	24.5	-4.6%	0.0%

Assay outcomes as filed in PubChem BioAssay.
